Screening results as filed in PubChem BioAssay.
D2 potentiator = Beta-Arrestin HTS for Positive Allosteric Modulators of the Human D2 Dopamine Receptor: Potentiators; D(2) dopamine receptor (Homo sapiens), P14416; DiscoveRx D2 beta-arrestin cells, luminescence, 90 min; 100% = 57 uM dopamine signal; potentiation, % (test concentration not listed); actives 0.23% (n = 360,000); AID 624464, 2012; active = potentiation of 50% or more; inconclusive = 30% to 50%; inactive = 30% or less;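 further: compound concentration not given in the record; tested on top of an EC20 dose of dopamine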
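PathHunter D2 cells, attached overnight at 37 deg C, received compound in DMSO plus dopamine at EC20 (50 nM final) for 90 min at 37 deg C. Beta-arrestin recruitment was read as luminescence after 1 h with detection reagent at ambient temperature.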
Six1-Eya2 inh = qHTS Assay for Inhibitors of the Six1/Eya2 Interaction. AlphaScreen GST-Six1/His-Eya2 binding, biochemical; stronger effect = lower value; control for the full effect not named in the record. Homeobox protein SIX1 (Homo sapiens) + Protein phosphatase EYA2 (Homo sapiens), …. activity change, % (no concentration beside the values). actives 0.56% (n = 360,000); in the data active = activity change below about -65%; inconclusive = about -30% to -65%; inactive = above about -30%; further: on the % scale 0 is the no-effect control and ±100 the full control effect; compound concentration not given in the record
Target sequence (O00167 whole entry, looked up): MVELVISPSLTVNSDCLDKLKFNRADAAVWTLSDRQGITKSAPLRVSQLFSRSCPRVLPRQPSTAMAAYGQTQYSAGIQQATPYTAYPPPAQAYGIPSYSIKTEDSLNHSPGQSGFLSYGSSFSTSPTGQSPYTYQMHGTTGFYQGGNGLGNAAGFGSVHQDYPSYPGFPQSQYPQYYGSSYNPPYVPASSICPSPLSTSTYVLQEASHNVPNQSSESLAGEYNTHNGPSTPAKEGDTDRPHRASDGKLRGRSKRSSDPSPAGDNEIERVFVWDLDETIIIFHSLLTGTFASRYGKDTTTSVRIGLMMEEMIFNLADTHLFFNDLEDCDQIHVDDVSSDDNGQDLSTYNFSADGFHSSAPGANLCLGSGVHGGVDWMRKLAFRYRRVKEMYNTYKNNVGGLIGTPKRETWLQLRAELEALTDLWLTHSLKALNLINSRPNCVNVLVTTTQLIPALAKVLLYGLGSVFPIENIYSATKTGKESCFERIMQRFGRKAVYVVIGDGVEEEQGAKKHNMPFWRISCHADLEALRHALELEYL
Target sequence (Q15475 whole entry, looked up): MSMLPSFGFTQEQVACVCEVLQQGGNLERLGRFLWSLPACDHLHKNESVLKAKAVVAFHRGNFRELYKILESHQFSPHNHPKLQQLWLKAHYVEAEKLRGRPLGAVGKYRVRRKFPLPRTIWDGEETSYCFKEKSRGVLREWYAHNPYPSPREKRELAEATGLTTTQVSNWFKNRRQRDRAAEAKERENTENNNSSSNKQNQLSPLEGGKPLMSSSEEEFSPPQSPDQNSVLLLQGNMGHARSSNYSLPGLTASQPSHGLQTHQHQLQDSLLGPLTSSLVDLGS
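Compounds are tested against tagged Six1 and Eya2 proteins bridged by glutathione donor and nickel acceptor beads; after a one-hour incubation at 37 °C without light, AlphaScreen emission is recorded.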
D2 ag = Beta-Arrestin HTS for Positive Allosteric Modulators of the Human D2 Dopamine Receptor: Agonists | D(2) dopamine receptor (Homo sapiens), P14416 | DiscoveRx PathHunter D2 beta-arrestin, luminescence, 90 min; 100% = 57 uM dopamine signal | activation, % (concentration not given with the values) | actives 0.084% (n = 360,000); in the data active = activation above about 40%; inconclusive = about 15% to 40%; inactive = below about 15%; further: compound concentration not given in the record; the text of the record calls up to 30% inactive
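Agonist mode: compounds alone added to overnight-plated D2 PathHunter cells for 90 min at 37 C, with 57 uM final dopamine (EC100) defining full response. Beta-arrestin recruitment detected by chemiluminescent reagent, read after 1 h at ambient temperature.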
PINK1 modulator = A Quantitative High throughput Screen to Identify Chemical Modulators of PINK1 Expression | PINK1 immunofluorescence, high-content cytometry, 24 h | Potency, µM (highest dose often 76.6 µM), without a hit: top-dose activation (PINK1 increase), most hits filed as activators | actives 0.2% (n = 410,000) | AID 624263, 2012; active = well fitted activation curve with a large enough effect; inconclusive = small, poorly fitted or top-dose-only effect; inactive = flat fitted curve, though single readings scatter; cell line not stated here;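 further: potency means the concentration at half of the fitted maximal effect; % of control where 0% means no effect; nearly all actives have a fitted effect of over 65% in size; a mitochondrial uncoupler was the plate control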
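Readout is PINK1 immunofluorescence, quantified alongside mitochondrial, cell and nuclear markers by laser-scanning microplate cytometry. Cells from a stable line were exposed to compound titrations (5 concentrations) for 24 hours, with CCCP controls.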
TRPML1 ag = qHTS for Agonists of the Human Mucolipin Transient Receptor Potential 1 (TRPML1) | Mucolipin-1 (Homo sapiens), Q9GZU1 | TRPML1-expressing cells, Ca2+ dye fluorescence, FDSS; host cell line not named in the record; reference of the full effect not given here | activation, % (test concentration not listed) | actives 0.12% (n = 410,000); in the data active = activation above about 50%; inconclusive = about 30% to 50%; inactive = below about 30%; further: 0% is about no effect; the text of the record puts the active cut at 80%
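Cells: TRPML1-DL, 1X Tet inducer, ~16 h at 37 degrees C/5% CO2. Dye: ABD Ca8 no-wash + quencher, 45-90 min RT. Read: 10 s baseline, compound add, 110 s agonist phase; 54-4 EC80 (4uM final), 110 s antagonist phase.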
TRPML1 inh = qHTS for Inhibitors of the Human Mucolipin Transient Receptor Potential 1 (TRPML1); Mucolipin-1 (Homo sapiens), Q9GZU1; TRPML1-inducible cells, Ca2+ dye fluorescence, FDSS; stronger effect = lower value; inhibition of EC80 agonist-evoked calcium signal; activity change, negative = inhibition, % (concentration not given with the values); actives 0.02% (n = 390,000); AID 624415, 2012; in the data active means activity change below about -50%; inconclusive means about -30% to -50%; inactive means above about -30%;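 further: stimulus is agonist 54-4 at its EC80 concentration; on the % scale 0 is the no-effect control and ±100 the full control effect; compound concentration not given in the record; the text of the record puts the active cut at -80%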
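Tet-induced TRPML1-DL cells loaded with Ca8 no-wash calcium dye were read kinetically on FDSS. Compound addition was followed by EC80 agonist 54-4 (4 uM final); inhibition was read over 110 s.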
* hit, by the source's call; ? = inconclusive; / = no result given; & = joins results of further samples; [ ] = dose if it differs, or a comment.

SMILES	D2 potentiator	Six1-Eya2 inh	D2 ag	PINK1 modulator	TRPML1 ag	TRPML1 inh
O=C(CNC(=O)c1cccs1)OCc1ccc(Cl)cc1	-3	-5	-2.5	-0.1%	0.8	12
COc1ccc(N2CC(NC(=O)C3CCCCC3)CC2=O)cc1OC (stereo unspecified)	/	/	/	1.9%	-0.6	9
Cc1ccc2c(C)nc(Nc3ncc4c(n3)CCCC4=O)nc2c1	-15	-1	-2.8	/	-0.4	20
CC(=O)Nc1cccc(C(=O)/C=C/c2cccs2)c1	-13	2	1.7	9.2%	1.1	-2
CC1(C(=O)NCCc2c[nH]c3ccccc23)CCN1CC1CCCCC1 (stereo unspecified)	-13	-14	-3.6	15%	-0.8	/
CCOc1ccccc1NC(=O)Cc1ccccc1OC	29	6	-0.5	-0.6%	-0.5	-16
N#Cc1c(-c2ccc(Cl)cc2)cc(-c2ccccc2)nc1SCC(=O)O	20	-2	6.4	-0.8%	/	/
CCn1c(SCC(=O)Nc2ccc(F)cc2F)nc2c(c1=O)SCC2	1	-6	-1.9	1.4%	1.7	-11
CCOC(=O)c1ccc(NC(=O)C2CCC(CNc3c(N4CCOCC4)c(=O)c3=O)CC2)cc1 (stereo unspecified)	-2	-1	-1.7	-1.8%	1.1	12
Cc1nc2c(C(=O)NCCC3=CCCCC3)c[nH]n2c(=O)c1Cl	6	-4	-1.6	1.1%[38.3 µM]	1.4	40
O=C1Nc2ccc(C(=O)O)c(O)c2C1=O	-25	-15	-7.2	1.2%	-0.5	2
CCOC(=O)Cn1c(=O)oc2cc(S(=O)(=O)N(CCN(C)C)Cc3ccccc3)ccc21	-15	-2	-2.5	-2.0%[38.3 µM]	0.1	0
Cc1cc(C)n2nnnc2c1C#N	-6	9	-0.6	-1.1%	-0.7	-7
Cc1ccc(CNC(=O)C(=O)NCC2CCCN2S(=O)(=O)c2cccs2)cc1 (stereo unspecified)	0	5	-0.8	-0.4%	0.2	-5
CC(=O)N1CCC2(CC1)OC(=O)C(C)=C2C(=O)NCc1ccc(Cl)cc1	/	/	/	-0.4%	1.2	6
CC(C)NC(=O)C1(C)CCN1C(=O)C(c1ccccc1)c1ccccc1 (stereo unspecified)	-3	4	-5.5	1.9%	-1.1	/
O=C(O)C1C2CCC(O2)C1C(=O)NCCC1=CCCCC1 (stereo unspecified)	14	5	0.4	?	0.9	-23
CC(OC(=O)CCCc1nc2ccccc2s1)C(N)=O (stereo unspecified)	1	3	4.9	-0.2%	-0.5	-8
Cc1cc(NC(=O)C2C3C(=O)N(CC4CCCO4)C(C(=O)NC(C)(C)C)C34C=CC2(C)O4)no1 (stereo unspecified)	4	-4	-3.6	0.1%	-0.5	30
Cc1ccccc1CNS(=O)(=O)c1ccc2c(c1)OCCO2	6	5	3.0	/	1.0	-11

Single records, as listed above. Screens in order: D2 potentiator, Six1-Eya2 inh, D2 ag, PINK1 modulator, TRPML1 ag, TRPML1 inh
Listed for Cc1nc2c(C(=O)NCCC3=CCCCC3)c[nH]n2c(=O)c1Cl → 6, -4, -1.6, 1.1%[38.3 µM], 1.4, 40
Listed for CC1(C(=O)NCCc2c[nH]c3ccccc23)CCN1CC1CCCCC1 (stereo unspecified) → -13, -14, -3.6, 15%, -0.8, /

The results go on:
SMILES	D2 potentiator	Six1-Eya2 inh	D2 ag	PINK1 modulator	TRPML1 ag	TRPML1 inh
CC1=Nc2ccccc2/C1=C/c1sc(=O)n(CC(=O)N2CCCC2)c1O	-15	0	-5.5	0.1%	0.4	17
Cc1ccc(S(=O)(=O)N2C(=O)C(C)SC2=Nc2ccccc2)cc1 (stereo unspecified)	-17	23	-5.1	0.0%	0.3	2
O=C(CSc1nnnn1-c1ccc(O)cc1)c1cc2ccccc2o1	-11	0	-3.3	0.6%	-0.5	-6
O=S(=O)(c1cc(Cl)ccc1Cl)N1CCC2(CC1)OCCO2	7	0	-2.1	0.8%	0.0	6
Clc1ccc(-n2nnnc2-c2cnc3ccc(Cl)cc3c2-c2ccccc2)cc1	-7	-11	-1.7	2.9%	0.8	18
COc1ccc(N2C(=O)C(Cl)=C(N(CCO)Cc3ccccc3)C2=O)cc1	-8	-7	-5.4	-0.2%	-0.2	-3
CCN(CC)S(=O)(=O)c1ccc(C)c(NC(=O)COC(=O)CN2C(=O)NC(C)(C)C2=O)c1	-6	-13	-4.9	5.3%	0.1	-8
COc1ccc(/C(O)=C2/C(=O)C(=O)N(c3ncccn3)C2c2ccc(F)cc2)cc1 (stereo unspecified)	-6	-5	-4.1	1.2%	-0.4	55
COC(=O)c1cc(NC(=O)Cc2ccc(OC)c(OC)c2)cc(C(=O)OC)c1	-8	-2	8.3	-0.1%	3.5	-5
COc1cccc(CN2C[C@]34C=C[C@@H](C[C@@H]3S2(=O)=O)O4)c1	-3	11	-0.3	2.2%	1.2	4
O=C(CSc1ncccn1)NCCc1ccccc1	13	4	-1.6	-1.9%	-0.2	11
COc1ccc(S(=O)(=O)Nc2ccc3cn[nH]c3c2)cc1C	2	-1	?	-0.9%	1.9	6
Cc1cc(C(F)F)nn1CC(=O)NCc1ccc(Cl)cc1Cl	-3	-9	-3.6	-0.3%	1.1	4
C#CCNC(=O)C1=C[C@H](c2ccc3c(c2)OCO3)C[C@H](OCCCCO)O1	-6	-4	-3.0	1.9%	-0.2	-10
O=C(NCCCN1CCOCC1)c1ccccc1N1C(=O)[C@@H]2Cc3c([nH]c4ccccc34)C(c3ccc(F)cc3)N2C1=O (stereo partly specified)	-14	-9	-2.1	1.6%	/	/
CCc1ccccc1Nc1nn2c(=O)c3ccc(C(=O)NCCCOC(C)C)cc3nc2s1	/	/	/	-0.2%	4.3	-15
CCCC1=NN2C(=N)/C(=C\c3ccc(OCCOc4ccc(NC(C)=O)cc4)c(OC)c3)C(=O)N=C2S1	-4	-2	-0.5	3.7%	-0.4	-5
CC(OC(=O)Cn1[nH]c(=O)c2ccccc2c1=O)C(=O)Nc1ccccc1[N+](=O)[O-] (stereo unspecified)	29	-1	-1.9	0.4%	-1.0	3
CCCN(C)C[C@@H]1OCc2cnnn2CCCC(=O)N([C@H](C)CO)C[C@H]1C	0	-10	-7.7	-0.1%	-0.6	12
Cc1cc2oc(=O)cc(CN3CCN(S(=O)(=O)c4ccc5c(c4)OCCO5)CC3)c2cc1C	-4	0	-3.5	-2.0%	1.5	3

Structural class: the compounds so far with fluorine.
SMILES	D2 potentiator	Six1-Eya2 inh	D2 ag	PINK1 modulator	TRPML1 ag	TRPML1 inh
CCn1c(SCC(=O)Nc2ccc(F)cc2F)nc2c(c1=O)SCC2	1	-6	-1.9	1.4%	1.7	-11
COc1ccc(/C(O)=C2/C(=O)C(=O)N(c3ncccn3)C2c2ccc(F)cc2)cc1 (stereo unspecified)	-6	-5	-4.1	1.2%	-0.4	55
Cc1cc(C(F)F)nn1CC(=O)NCc1ccc(Cl)cc1Cl	-3	-9	-3.6	-0.3%	1.1	4
O=C(NCCCN1CCOCC1)c1ccccc1N1C(=O)[C@@H]2Cc3c([nH]c4ccccc34)C(c3ccc(F)cc3)N2C1=O (stereo partly specified)	-14	-9	-2.1	1.6%	/	/

The listing continues.
SMILES	D2 potentiator	Six1-Eya2 inh	D2 ag	PINK1 modulator	TRPML1 ag	TRPML1 inh
COc1ccc(NC(=O)C(CC(C)C)NC(=O)C2CCC(C)CC2)c(OC)c1 (stereo unspecified)	-15	-17	-2.9	1.7%	-0.2	-11
CCCCCCC1(C)NC(=O)N(C(C)C(=O)Nc2ccc(N3CCOCC3)cc2)C1=O (stereo unspecified)	0	-1	-4.0	0.8%	-0.1	12
COc1ccc(N(C)S(=O)(=O)c2cccc(C(=O)Nc3nc(C)cs3)c2)cc1	7	-6	6.9	2.6%	2.8	0
Cc1oc(-c2cccc(Cl)c2)nc1CSc1nc2ncccc2[nH]1	/	/	/	0.3%	1.2	3
CC(C)(C)c1cc(C(F)(F)F)n2ncc(-c3ccccc3)c2n1	-5	-1	2.9	6.6%	-0.7	4
CCCNS(=O)(=O)c1ccc2nc(NC(=O)c3ccc(F)cc3)sc2c1	/	/	/	1.2%	-0.9	-5
Cc1ccc(NC(NC(=O)c2cccnc2)C(Cl)(Cl)Cl)cc1 (stereo unspecified)	-8	9	-0.1	2.1%	-0.5	13
COc1ccc(N2CCN(CCCNC(=O)C3(S(=O)(=O)c4ccc(Cl)cc4)CC3)CC2)cc1	-31	-21	-3.1	-0.9%	-0.4	-18
COC(=O)C1=C(C)N(Cc2ccccc2)C(=S)N[C@H]1c1cccc(F)c1	-9	-6	-4.5	1.3%	?	-5
CC(=O)c1ccc(OCCCC(=O)Nc2nnc(C3CC3)s2)cc1	-4	5	-2.1	3.2%	2.2	-7
COc1ccc(CN2C(=O)c3ccccc3C2c2nnnn2Cc2ccccc2)cc1 (stereo unspecified)	/	-7	/	0.3%	-0.8	/
N#C/C(=C\c1c(N2CCN(Cc3ccccc3)CC2)nc2ccccn2c1=O)S(=O)(=O)c1ccccc1	-25	-18	-5.3	0.5%	2.7	8
C=C1CC2C(=O)N(Cc3cc(OC)ccc3OC)C(C(=O)OCC)(C(=O)OCC)C1N2C(=O)OC(C)(C)C (stereo unspecified)	-11	1	-4.1	0.9%	0.7&0.6	7&-1
Cc1ccc(S(=O)(=O)c2nc(-c3cccs3)oc2SCc2ccc(F)cc2)cc1	/	/	/	-1.2%	0.9	-5
CCOC(=O)c1[nH]c(C)c(/C(O)=C2\C(=O)C(=O)N(CCCN(CC)CC)C2c2cccnc2)c1C (stereo unspecified)	-15	2	-2.9	0.1%	6.7	8
O=C(NC1CCCCC1)c1cc(-c2cccs2)on1	-8	14	-5.7	2.5%	0.0	-6
CC(=O)NNC1=Nc2ccccc2N(C)C(C)C1 (stereo unspecified)	-3	7	-1.6	8.9%	0.1	0
Cc1ccc(Nc2n[nH]c(=S)s2)cc1F	-16	-17	0.8	-5.4%	0.4	-9
CC(C)Sc1cc(Cl)nc(NC(=O)Nc2ccccc2)n1	-33	-7	2.5	6.5%	1.0	-1
CC(C)CC1(C)NC(=O)N(CC(=O)Nc2ccc(F)c(F)c2F)C1=O (stereo unspecified)	-9	2	-2.8	-0.8%	0.5	23
CCOC(=O)C1CCN(S(=O)(=O)Cc2ccccc2)C1=O (stereo unspecified)	16	11	-2.3	-0.1%	0.8	2
COc1cccc(-c2cc3nc(C)cc(N4CCN(C(=O)c5ccoc5)CC4)n3n2)c1	7	?	-5.4	15%	0.4	-5
O=C1CCCCC(=O)[C@H](O)C[C@H](COCc2ccccc2)O1	/	6	/	-0.9%	-0.2	/
Cc1cc(C)cc(NS(=O)(=O)c2coc(C(N)=O)c2)c1	0	6	2.9	-0.6%	1.3	5
COc1ccccc1CC(=O)N1CCOCC1	-2	4	-3.0	-1.2%	1.0	20
